RGS16-Gao HTS: RGS16-Galphao interaction regulator (human); 0.38% of 220,000 active; AID 1441; binding response (% of control), % at 10 µM; bead-based flow cytometry RGS16-Galphao binding, fluorescence; actives lie on both sides; O15492+P09471;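 active means below 25% or above 175%, edge rows of some plates excepted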;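 further: Galphao activated by GDP with aluminum fluoride before binding; 100% = wells without compound and 0% = beads without RGS; some results beyond the cut were filed as inactive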
PKD1 inh: inhibitors of human PKD1 kinase; PKD1 kinase fluorescence polarization assay; inhibition, %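 (about 10 µM by stock and volumes)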; 0.056% of 200,000 active;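 active means inhibition of 50% or more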;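 further: controls were vehicle for no effect and a reference inhibitor for full effect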
Target sequence (Q15139 whole entry, looked up): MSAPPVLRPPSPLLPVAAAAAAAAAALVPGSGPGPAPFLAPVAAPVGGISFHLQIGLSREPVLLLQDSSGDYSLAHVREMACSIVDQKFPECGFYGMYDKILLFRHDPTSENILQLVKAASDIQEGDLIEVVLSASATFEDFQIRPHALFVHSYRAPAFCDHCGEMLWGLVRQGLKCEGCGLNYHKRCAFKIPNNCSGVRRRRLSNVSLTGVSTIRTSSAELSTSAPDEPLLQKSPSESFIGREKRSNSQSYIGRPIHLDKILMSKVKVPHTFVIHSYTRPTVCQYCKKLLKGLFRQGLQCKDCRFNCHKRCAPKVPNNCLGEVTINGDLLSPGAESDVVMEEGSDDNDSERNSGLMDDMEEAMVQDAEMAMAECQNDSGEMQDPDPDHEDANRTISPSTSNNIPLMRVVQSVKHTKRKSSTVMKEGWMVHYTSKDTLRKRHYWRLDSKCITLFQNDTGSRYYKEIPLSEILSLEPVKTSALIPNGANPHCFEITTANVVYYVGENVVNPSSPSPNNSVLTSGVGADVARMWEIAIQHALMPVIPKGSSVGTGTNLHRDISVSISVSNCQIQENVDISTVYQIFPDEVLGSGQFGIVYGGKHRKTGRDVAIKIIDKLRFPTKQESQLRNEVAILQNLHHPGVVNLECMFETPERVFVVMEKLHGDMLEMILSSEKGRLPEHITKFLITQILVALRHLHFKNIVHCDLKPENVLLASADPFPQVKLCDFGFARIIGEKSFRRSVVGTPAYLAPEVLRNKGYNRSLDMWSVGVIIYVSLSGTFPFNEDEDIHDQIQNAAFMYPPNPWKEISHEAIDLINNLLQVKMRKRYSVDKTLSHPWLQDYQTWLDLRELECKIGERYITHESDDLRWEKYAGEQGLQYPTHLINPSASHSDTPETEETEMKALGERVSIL
Insulin prom inh: TRM-6 insulin promoter activity inhibition; TRM-6 cells (human fetal islet line), insulin promoter-eGFP reporter, imaging; reporter expression induced with tamoxifen; inhibition, % at 2 µM; 0.9% of 130,000 active; AID 1273;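 active means inhibition above the mean plus 3 SD, with well images judged a real hit on visual review, cut at about 60% in these data, passing the limit was not always enough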
GALR2 ag: agonists of human galanin receptor 2 (GALR2); GALR2-expressing cells, agonist activation read-out; activation, %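 (tested at 5 µM)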; 0.48% of 140,000 active; AID 803;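 active means above mean plus 3 SD of all compounds, about 5% in these data, not always enough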;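 further: 0% = vehicle buffer wells and 100% = reference agonist at full effect; tested in CHO reporter cells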
HSV replic up: increases HSV replication in cells | HSV replication augmentation in cells, fold increase | maximum fold increase | 0.005% of 220,000 active;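 active means peak rise of 1.5-fold or more in the series; tested in PC3 cells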;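 further: first round at 10 µM; read as green reporter fluorescence; hits show the peak of a series up to 25 µM; 1 = signal of infected wells without compound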
Insulin prom inh cell count: recorded beside Insulin prom inh, whose call it bears; normalized cell count, %; measured here: cell count, toxicity; reference of the scale not given here;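 cells exposed to compound for 48 h; stained nuclei by imaging scaled within each plate; lower means fewer cells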
HSV replic up primary fold: recorded beside HSV replic up, whose call it bears; fold increase; compound at 10 µM; measured here: primary screen fold increase 10 uM; tested in PC3 cells;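 GFP signal in the first replicate; 1 = infected wells without compound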
Starred values were filed as active, the others as inactive; i = inactive; . = not tested or not shown.

SMILES	RGS16-Gao HTS	PKD1 inh	Insulin prom inh	Insulin prom inh cell count	GALR2 ag	HSV replic up	HSV replic up primary fold
Nc1nc(NCc2ccco2)nc(Nc2ccc(F)cc2)c1[N+](=O)[O-]	99	.	.	.	.	i	0.83
CC(=O)c1cccc(NC(=O)c2ccc(N(Cc3ccc(C)cc3)S(C)(=O)=O)cc2)c1	101	-10	-27	58	-1.6	i	1.2
C=CCNC(=S)N/N=C/c1ccc(C)s1	94	.	.	.	.	i	0.83
COc1ccccc1-c1nc2ccccc2c(=O)n1NC(=O)c1cccs1	98	1	13	116	0.0	i	0.96
CCOc1ccc(NC(=O)Nc2ccc(N(C)C(C)=O)cc2)cc1	93	-10	48	84	-1.1	i	0.9
CCN(C(=O)COC(=O)c1cc(OC)c(OC)cc1[N+](=O)[O-])C1CCS(=O)(=O)C1 (configuration not stated)	102	0	-17	133	.	i	0.95
CCC(=O)c1ccc(SC(=O)N(C)C)cc1O	100	.	.	.	.	i	1.1
Cn1c(/C=C/N2CCOCC2)c(C(=O)c2ccc(Br)cc2)c(=O)n(C)c1=O	102	-7	36	97	-1.2	i	0.77
O=C(Nc1ccc2c(c1)OCO2)c1ccc(S(=O)(=O)NCC2CCCO2)cc1 (configuration not stated)	102	-3	38	149	-2.1	i	0.99
Cc1ccc(C)n1-c1ccc(-c2nnco2)cc1	65	-4	26	101	-2.9	i	1
CCOc1ccc(-n2cnnn2)cc1S(=O)(=O)NC1CC1	103	-4	-59	115	-0.6	i	0.73
O=[N+]([O-])c1ccc(NC(=S)N2CCc3ccccc3C2)cc1	36	1	3	94	-2.3	i	0.86
COc1ccc(CNC(=O)/C=C/c2cc([N+](=O)[O-])ccc2OC(F)F)cc1	115	-3	48	103	-2.9	i	1.1
COC(=O)CNC(=O)C(Cc1c[nH]c2ccccc12)NC(=O)Oc1ccccc1 (configuration not stated)	104	.	.	.	.	i	1
C=C(C)C1(O)OC(=O)C=C1OC (configuration not stated)	101	1	.	.	.	i	0.82
O=C(Cc1ccc([N+](=O)[O-])cc1)N/N=C/c1ccc([N+](=O)[O-])o1	100	-6	-79	118	.	i	0.67
O=C(Nc1cccnc1)c1ccc(CSc2ccccc2)cc1	100	0	.	.	.	i	0.89
c1ccc(CCn2nnnc2C(c2cccnc2)N2CCN(c3nc4ccccc4s3)CC2)cc1 (configuration not stated)	106	-6	.	.	-0.2	i	0.97
c1ccc(-c2ccccc2OCCCN2CCCC2)cc1	97	1	-67	90	0.2	i	0.9
CCCCNS(=O)(=O)c1ccc2nc(-c3cccnc3)cc(C(=O)NCCCN(CC)CC)c2c1	102	-4	.	.	.	i	0.91
O=C(CS(=O)(=O)Cc1ccccc1)Nc1ccc(S(=O)(=O)N2CCOCC2)cc1	96	-3	39	80	-0.2	i	0.95
O=C(CSc1nnc(-c2cccs2)n1Cc1ccco1)Nc1ccc2c(c1)OCO2	99	5	-25	180	-1.0	i	0.98
O=C(N/N=C/c1cccs1)c1cc(-c2ccc3ccccc3c2)n[nH]1	107	-2	-15	87	-0.7	i	0.87
Cc1nc2sc(C(c3ccco3)N3CC(C)OC(C)C3)c(O)n2n1 (configuration not stated)	98	-11	.	.	-1.2	.	.
CC(C)NC(=O)CN(c1cccc(Br)c1)S(C)(=O)=O	100	-3	14	84	-2.0	i	1
COc1cccc(CC(=O)Nc2nc3ccccc3[nH]2)c1	98	-4	.	.	.	i	1
CC(C)(NC(=O)N1CCCC1)c1cccc(C(C)(C)NC(=O)N2CCCC2)c1	53	3	-15	74	0.5	i	0.96
O=C(Nc1cccc(Cl)c1)Nc1ccccc1C(=O)O	96	.	.	.	.	i	0.94
O=C(NC(C(=O)c1ccccc1)n1cnccc1=O)c1ccccc1 (configuration not stated)	99	-10	64	96	-2.4	i	1
C/C(CC(=O)Nc1ccc(Cl)cc1C(F)(F)F)=N\NC(=O)c1cccs1	96	.	.	.	.	i	0.94
O=C1OC(c2ccccc2)=N/C1=C\N1CCCCC1	95	-9	-29	115	-0.8	.	.
CC1CCCN(C(=O)Cn2nnc(-c3cccnc3)n2)C1 (configuration not stated)	99	2	-14	111	-1.4	i	0.93
COc1ccc(NC(=S)NCCc2ccccc2)c(OC)c1	109	4	0	112	-3.0	i	1.1
COCCCn1c(Cc2csc(Nc3cccc(Cl)c3)n2)nnc1SCC(=O)OC1CCCCC1	96	-7	-49	35	-1.3	i	1.1
Cc1ccc(-c2noc(C3CCN(S(=O)(=O)c4ccc5c(c4)OCCO5)CC3)n2)o1	99	-12	-38	69	-1.1	i	0.97
Cn1nc(-c2ccc(C(=O)N3CCN(c4ccccc4)CC3)cc2)c2ccccc2c1=O	.	-8	-11	54	2.0	.	.
Cc1noc(C)c1S(=O)(=O)Nc1ccc(O)c2c(=O)cc(-c3ccccc3Cl)oc12	92	.	.	.	.	i	1
CNC(=S)NCc1ccc(Cl)cc1	.	1	-66	70	-0.4	i	0.97
O=C(CC1(O)C(=O)N(CN2CCOCC2)c2ccccc21)c1ccccc1 (configuration not stated)	101	7	57	89	-2.8	i	0.88
Nc1cccc(/C=C/C(=O)O)c1	102	.	.	.	.	i	1.1
COc1ccccc1NS(=O)(=O)c1cccc(C(=O)N/N=C/c2ccc(OCC(=O)O)cc2)c1	95	3	.	.	.	i	1
Cc1ccc(S(=O)(=O)N(C)CC(=O)NC2CCCC2)cc1	101	-2	-69	89	-1.6	i	1.2
Cc1cc(C)c(NC(=O)C2CCC(=O)N2)c(C)c1 (configuration not stated)	107	-2	.	.	.	i	0.9
Cc1cc(C)c2c3c(sc2n1)C1(CCSCC1)C(C#N)=C(N)O3	105	-5	17	191	0.9	i	1.1
CCCCn1nc2cc(C(=O)N[C@H](C)C3CCCCC3)ccc2c1OCC	107	-4	7	127	1.0	i	1.1
O=C(CCc1ccccc1)Nc1ncc([N+](=O)[O-])s1	101	-2	.	.	.	i	0.95
O=C(CSc1ccc(-c2cccnc2)nn1)c1ccc([N+](=O)[O-])cc1	106	-4	58	97	.	i	0.97
Clc1ccc(-c2csc(Nc3cccnc3)n2)cc1	101	.	.	.	.	i	0.94

Twelve compounds from above, arranged by molar mass, highest first.
SMILES	RGS16-Gao HTS	PKD1 inh	Insulin prom inh	Insulin prom inh cell count	GALR2 ag	HSV replic up	HSV replic up primary fold
c1ccc(CCn2nnnc2C(c2cccnc2)N2CCN(c3nc4ccccc4s3)CC2)cc1 (configuration not stated)	106	-6	.	.	-0.2	i	0.97
Cc1noc(C)c1S(=O)(=O)Nc1ccc(O)c2c(=O)cc(-c3ccccc3Cl)oc12	92	.	.	.	.	i	1
Cn1c(/C=C/N2CCOCC2)c(C(=O)c2ccc(Br)cc2)c(=O)n(C)c1=O	102	-7	36	97	-1.2	i	0.77
COc1ccccc1-c1nc2ccccc2c(=O)n1NC(=O)c1cccs1	98	1	13	116	0.0	i	0.96
CC(C)NC(=O)CN(c1cccc(Br)c1)S(C)(=O)=O	100	-3	14	84	-2.0	i	1
Cc1nc2sc(C(c3ccco3)N3CC(C)OC(C)C3)c(O)n2n1 (configuration not stated)	98	-11	.	.	-1.2	.	.
Cc1cc(C)c2c3c(sc2n1)C1(CCSCC1)C(C#N)=C(N)O3	105	-5	17	191	0.9	i	1.1
O=C(Nc1cccnc1)c1ccc(CSc2ccccc2)cc1	100	0	.	.	.	i	0.89
O=[N+]([O-])c1ccc(NC(=S)N2CCc3ccccc3C2)cc1	36	1	3	94	-2.3	i	0.86
Cc1cc(C)c(NC(=O)C2CCC(=O)N2)c(C)c1 (configuration not stated)	107	-2	.	.	.	i	0.9
Cc1ccc(C)n1-c1ccc(-c2nnco2)cc1	65	-4	26	101	-2.9	i	1
C=C(C)C1(O)OC(=O)C=C1OC (configuration not stated)	101	1	.	.	.	i	0.82

(continued)
SMILES	RGS16-Gao HTS	PKD1 inh	Insulin prom inh	Insulin prom inh cell count	GALR2 ag	HSV replic up	HSV replic up primary fold
O=C1CSC(c2ccc([N+](=O)[O-])cc2)N1CCN1CCCCC1 (configuration not stated)	103	0	31	47	.	i	0.98
O=C(COC(=O)c1cc2ccccc2cc1O)Nc1cccnc1Cl	99	-6	-4	73	-0.6	i	0.99
COC(=O)c1ccc(C)c(NC(=O)C2COc3ccccc3O2)c1 (configuration not stated)	102	4	12	121	-1.7	i	0.94
O=C(CSc1nn(-c2ccccc2)c(=S)s1)NC(=O)NCc1ccco1	97	-9	-50	112	-1.9	i	1.1
Fc1cc(Cl)ccc1NC(=S)NCCN1CCOCC1	98	-8	.	.	.	i	0.96
CCOC(=O)c1c(C)nc(C(Cl)(Cl)Cl)nc1N	100	2	11	97	.	i	0.95
CCC(=O)N1CCc2cc(Br)cc(S(=O)(=O)NCC3CCCO3)c21 (configuration not stated)	99	-1	19	100	-0.8	i	0.84
CCOC(=O)c1[nH]c2ccc(OC)cc2c1NC(C)=O	102	-1	-15	73	-1.4	i	0.82
COc1ccc(C(=O)Nc2ccccc2N2CCCCC2)cc1[N+](=O)[O-]	99	4	.	.	.	i	0.94
COc1ccc(S(=O)(=O)NCCc2nnc3ccc(SCC(=O)Nc4cc(C)on4)nn23)cc1	100	-8	.	.	.	i	1
Cc1ccc(-n2c(N)c(Br)c(=O)[nH]c2=O)cc1C	105	-7	.	.	.	i	0.96
COc1ccc(-c2cc(C(=O)Nc3c(C)nn(Cc4ccccc4)c3C)no2)cc1	105	0	37	103	-2.6	i	0.8
COC(=O)C(C)NC(=O)C(C)NC(=O)OCc1ccccc1 (configuration not stated)	.	-8	29	127	-2.8	i	0.84
O=C(CCc1ccc(S(=O)(=O)NCCc2ccccc2)cc1)Nc1ccc2c(c1)OCCO2	94	3	.	.	-0.8	i	1.2
Fc1ccc(-c2oncc2-c2nnnn2-c2ccccc2)cc1F	96	4	-13	84	1.8	i	0.99
O=C(NC(=S)Nc1ccc(Cc2ccncc2)cc1)c1ccccc1F	103	-4	.	.	.	i	0.74
CCn1c(C)nc2cc(C(=O)NNC(=S)Nc3ccc(OC)cc3)ccc21	168	-5	11	120	.	i	0.9
O=C(NC1CCCC1)C(c1ccc(Cl)cc1)N(Cc1ccc(F)cc1)C(=O)CCl (configuration not stated)	112	-2	-26	69	-1.4	i	1
COc1ccc(Sc2ncnc3onc(C)c23)cc1	97	-2	.	.	.	i	1
CC(=O)NC1=NN(C(C)=O)C2(S1)C(=O)N(CC(C)C)c1ccc(C)cc12 (configuration not stated)	105	.	.	.	.	i	0.72
Cc1occc1-c1nnc(SCC(=O)c2ccc(Cl)cc2)n1CC1CCCO1 (configuration not stated)	100	0	-23	79	-0.1	i	0.93
O=C(CN1CC(=O)Nc2ccccc21)NCCc1ccc(Cl)cc1Cl	99	1	18	104	.	i	0.96
Cc1ccc(NC(=O)N2CCC(NC(=O)C(C)(C)C)CC2)cc1	85	-1	-29	124	-2.1	i	0.76
CC(=O)N1CCN=C1SCc1c(F)cccc1Cl	109	-6	.	.	-1.3	i	0.93
O=C(C1=C[C@H](C2CC2)C[C@H](OCc2ccc(CO)cc2)O1)N1CCOCC1	100	-3	.	.	.	i	1.1
O=C1CC(N2CCC(c3nc4ccccc4[nH]3)CC2)C(=O)N1Cc1ccccc1 (configuration not stated)	104	-6	61	94	-0.5	i	0.9
COc1cc(OC)c(OC)cc1/C=N/NC(=O)CC1C(=O)NN=C1C (configuration not stated)	170	-4	-25	35	-1.7	.	.
COc1ccc(C(=O)COC(=O)CCc2ccccc2)cc1	93	.	.	.	.	i	0.86
O=C(O)CC1S/C(=N/N=C/c2ccc(-c3ccc(Cl)cc3[N+](=O)[O-])o2)NC1=O (configuration not stated)	75	7	.	.	-1.5	i	0.99
COc1ccc(-c2[nH]c(-c3ccc(F)cc3)nc2SCC(=O)NC2CCCC2)cc1	.	-11	10	102	-1.5	i	0.94
CC1=CC(C)(C)N(C(=O)CN2C(=O)CCC2=O)c2ccc(C)cc21	100	1	.	.	.	i	1
O=C(C1CCCN(S(=O)(=O)c2ccccc2[N+](=O)[O-])C1)N1CCCC1 (configuration not stated)	100	-10	.	.	0.3	i	1.1
NC(=O)C1CCN(C(=O)Cn2cccc2C(=O)c2ccccc2)CC1	42	7	10	94	-1.0	i	0.77

Bioassay records deposited in PubChem BioAssay by several laboratories.
